# Measles inh: inhibitors of measles virus growth in infected cells | infected Vero cells, GFP fluorescence, 64 h; hits give low values | z-score (test concentration not listed) | 0.1% of 33,000 active | AID 745;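 active = z-score under -3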;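 note: score is relative to mean and SD of the compound wells of a plate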
# * hit, by the source's call. An excerpt. The share of hits here may be higher or lower than overall.
No.	Measles inh	mol
1	1.2	CC(=O)Nc1ccc(S(=O)(=O)NCC2CCC(C(=O)N3CCc4ccccc43)CC2)cc1 (centres undefined)
2	2.3	COc1cc(NC(=O)Cn2c(=O)n(-c3ccccc3)c(=O)c3c4c(sc32)CCCC4)cc(OC)c1
3	2.1	COc1ccc(S(=O)(=O)NCCC(=O)NC2CCC(C)CC2)cc1 (centres undefined)
4	1.2	N#CCNC(=O)C1c2ccccc2Oc2ccccc21
5	1.2	COC(=O)c1ccc(C(=O)OC)c(NC(=O)c2ccc(OC)cc2OC)c1
6	0.38	O=C(O)C1CCN(S(=O)(=O)c2cnc[nH]2)CC1
7	-0.1	COc1ccc(-c2cn3cccc(C)c3n2)cc1F
8	0.04	O=C(O)CNc1ncnc2nc[nH]c12
9	-0.53	CC1CCCN(C(=O)Cn2cnc3sc4c(c3c2=O)CCCC4)C1 (centres undefined)
10	0.55	CSCCC(NC(=O)c1ccco1)C(=O)O (centres undefined)
11	-0.64	CC1=NS(=O)(=O)c2ccccc2N1Cc1cccc(F)c1
12	0.16	Cc1cccc(-c2noc(COc3ccc(Br)cc3C)n2)c1
13	0.58	O=C(CCCCn1c(=O)[nH]c2ccccc2c1=O)Nc1ccc(F)cc1
14	0.34	Cc1ccc(OCC(O)CN2CCCC2)cc1 (centres undefined)
15	0.36	Cc1nc2sc(C(c3ccco3)N3CCOCC3)c(O)n2n1 (centres undefined)
16	-0.49	CCOC(=O)c1c(NC(=O)Cc2ccccc2)sc2c1CC(C)(C)OC2

# Reprinted at random: 3 compounds from above, in no set order.
No.	Measles inh	mol
13	0.58	O=C(CCCCn1c(=O)[nH]c2ccccc2c1=O)Nc1ccc(F)cc1
11	-0.64	CC1=NS(=O)(=O)c2ccccc2N1Cc1cccc(F)c1
12	0.16	Cc1cccc(-c2noc(COc3ccc(Br)cc3C)n2)c1

# A draw from above in order of number of heavy atoms, low to high:
No.	Measles inh	mol
10	0.55	CSCCC(NC(=O)c1ccco1)C(=O)O (centres undefined)
11	-0.64	CC1=NS(=O)(=O)c2ccccc2N1Cc1cccc(F)c1
12	0.16	Cc1cccc(-c2noc(COc3ccc(Br)cc3C)n2)c1
16	-0.49	CCOC(=O)c1c(NC(=O)Cc2ccccc2)sc2c1CC(C)(C)OC2

# High-throughput results (PubChem BioAssay)
